FGF22 binding: binders of human FGF22 protein, primary screen, FGF22 synaptogenesis inhibitor project, biophysical, thermal shift, single point; calls only at 9.99 µM; Fibroblast growth factor 22 (Homo sapiens), Q9HCT0; recombinant FGF22 thermal shift, SYPRO orange fluorescence; percent of sucrose octasulfate shift, DMSO zero; AID 651658, 2012; 340,000 tested, 1.5% active;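 active = melting point raised past a set limit in the mean and every replicate; inconclusive = no clear call; three in four hits are not shown here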
Target sequence (Q9HCT0 whole entry, looked up): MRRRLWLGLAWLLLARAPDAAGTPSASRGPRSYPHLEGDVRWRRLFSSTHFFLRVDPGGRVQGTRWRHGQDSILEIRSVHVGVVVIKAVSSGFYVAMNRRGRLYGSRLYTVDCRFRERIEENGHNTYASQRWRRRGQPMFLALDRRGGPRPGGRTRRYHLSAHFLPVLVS
A1 inh: caspase 3/7 activation in MEF A1-2A-BIM cells, primary screen, A1 inhibitor project, cell-based, luminescence, HTS | Caspase-Glo 3/7 luminescence, 3 h; percent of clofoctol response, vehicle zero | caspase activation, % (test concentration not listed) | 330,000 tested, 0.066% active;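 active = over half of replicate activation scores above 10%, or exactly half above 10 with the replicate mean above 10; inconclusive = replicate mean below 10 yet half the replicates above 10; inactive = over half of replicates below 10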;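 also: wells of about 30 µL received 50 nL stock; many hits fall short of the cut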
E coli growth: E. coli growth inhibition, primary screen, OD600; OD600 absorbance (test concentration not listed); Escherichia coli growth, 23 h; stronger effect = lower value; AID 1053175, 2014; 330,000 tested, 0.21% active;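 active = OD600 absorbance below the run mean of sample wells minus 3.6 SD, in any replicate, cut at about 0.56 in these data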;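 also: stock transfer was 300 nL into about 60 µL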
T cruzi inh: inhibitors of intracellular T. cruzi growth, primary screen, luminescence, NIH3T3 host cells | 300,000 tested, 1.4% active | T. cruzi beta-gal in NIH3T3, 90 h | inhibition, % (concentration not given with the values);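 active = mean inhibition across valid replicates above about 55%, limit read from the data; inconclusive = mean below that limit but half or more replicates reach it; inactive = mean below it, under half of replicates reach it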;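 also: signal also drops with host cell toxicity which is not excluded here; 0% = plate median of DMSO wells and 100% = zero luminescence signal; higher percent means less beta-gal luminescence so fewer parasites; stock transfer was 50 nL into about 50 µL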
Ecoli rRNA inh: reduced GFP signal of wild-type E. coli, primary screen, bacterial rRNA inhibitor project, GFP/RFP fluorescence, OD600, single point; 350,000 tested, 1.6% active; GFP signal change (wild-type ribosome), % (test concentration not listed); AID 720706, 2013; E. coli WT GFP vs humanized-ribosome RFP mutants, 24 h; stronger effect = lower value; DMSO median 0, no signal -100;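 active = significant combined selectivity score with lowered wild-type GFP, culture density cut under 30%, mutant RFP and density less affected; inactive = any of these conditions unmet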; also: one replicate is shown; some compounds called inactive have numbers as strong as hits
AF4-AF9 inh: inhibitors of AF4 peptide binding to AF9, primary screen, biochemical, AlphaScreen, biotin-AF4 peptide, FLAG-AF9, single point. 350,000 tested, 0.47% active. inhibition, % at 10 µM. Protein AF-9 (Homo sapiens), P42568;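 active = every replicate reaching a set inhibition limit, whatever the replicate mean, cut at about 25% in these data; inconclusive = mean inhibition reaches that limit but some replicates miss it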;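 also: 0% = plate neutral control median and 100% = total signal loss; the record names both 10 and 1 µM as test concentration; the first replicate is given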
Target sequence (P42568 whole entry, looked up): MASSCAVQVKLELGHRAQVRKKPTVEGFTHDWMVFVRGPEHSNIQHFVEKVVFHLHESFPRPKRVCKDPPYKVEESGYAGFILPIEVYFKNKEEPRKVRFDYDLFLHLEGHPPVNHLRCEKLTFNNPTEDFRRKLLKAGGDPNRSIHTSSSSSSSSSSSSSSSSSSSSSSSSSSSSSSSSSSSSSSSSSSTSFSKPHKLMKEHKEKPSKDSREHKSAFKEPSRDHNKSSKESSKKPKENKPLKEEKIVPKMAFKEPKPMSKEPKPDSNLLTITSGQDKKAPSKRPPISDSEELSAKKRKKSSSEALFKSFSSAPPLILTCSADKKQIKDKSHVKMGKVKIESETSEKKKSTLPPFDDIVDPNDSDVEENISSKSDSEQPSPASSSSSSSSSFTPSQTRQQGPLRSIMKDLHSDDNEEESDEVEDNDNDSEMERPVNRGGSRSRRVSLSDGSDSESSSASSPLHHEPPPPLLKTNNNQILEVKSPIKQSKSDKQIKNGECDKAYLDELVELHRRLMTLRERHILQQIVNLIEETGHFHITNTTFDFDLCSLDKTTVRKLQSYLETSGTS
Beta apoptosis: inhibitors of cytokine-induced beta cell apoptosis, primary screen, luminescence; 300,000 tested, 0.8% active; AID 435005, 2010; INS-1E cytokine-induced death, ATP luminescence, 48 h; percent of positive-control rescue, neutral wells zero; protection from apoptosis, % (concentration not given with the values);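 active = all replicates at 75% or more, or half of them and the mean; inconclusive = half reach 75% but not the mean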;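 also: 0% = cytokine-treated negative control wells and 100% = positive control rescue; higher means more ATP so stronger rescue from cytokine killing; wells of about 40 µL received 100 nL stock; the first replicate is given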
UCH37 inh: inhibitors of human UCH37 deubiquitinase, primary screen, biochemical, Ub-AMC cleavage, fluorescence | Ubiquitin carboxyl-terminal hydrolase isozyme L5 (Homo sapiens), Q9Y5K5 | purified proteasome/UCH37 | inhibition, % (no concentration beside the values) | 330,000 tested, 0.33% active | AID 588478, 2011;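 active = mean of two replicates above 20%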;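 also: 0% = compound-free wells with enzyme and 100% = wells lacking proteasome; stock transfer was 100 nL into about 20 µL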
Target sequence (Q9Y5K5 whole entry, looked up): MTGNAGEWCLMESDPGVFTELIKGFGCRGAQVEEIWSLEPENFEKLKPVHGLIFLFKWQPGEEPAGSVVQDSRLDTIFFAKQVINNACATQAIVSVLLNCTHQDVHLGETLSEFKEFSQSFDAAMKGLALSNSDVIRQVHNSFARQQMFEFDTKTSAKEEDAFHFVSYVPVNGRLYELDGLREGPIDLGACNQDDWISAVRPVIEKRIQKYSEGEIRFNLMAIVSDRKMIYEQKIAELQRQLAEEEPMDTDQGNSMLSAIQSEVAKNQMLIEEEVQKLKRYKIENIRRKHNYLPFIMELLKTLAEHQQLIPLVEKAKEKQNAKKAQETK
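Test system – human UCH37 enzyme supplied as purified proteasome complex · Incubation – 30 min preincubation with enzyme, 25 min cleavage at room temperature · Detection – AMC fluorescence from Ub-AMC cleavage, excitation 355 nm, emission 460 nm · Benchmarks – no-proteasome wells (full inhibition) and compound-free wells (no inhibition)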
Ecoli rRNA inh OD600: recorded beside Ecoli rRNA inh, whose call it bears; OD600 change, %; measured here: OD600 growth;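 optical density of the mix in the first replicate; 0 = DMSO median and -100 = no signal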
Ecoli rRNA inh RFP: also measured in Ecoli rRNA inh; calls as there; RFP signal change, %; measured here: RFP humanized mutant strains;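 first replicate; 0 = DMSO median and -100 = no signal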
* = called active by the depositor; i = inactive; u = inconclusive; x = no result given.

mol	FGF22 binding	A1 inh	E coli growth	T cruzi inh	Ecoli rRNA inh	Ecoli rRNA inh OD600	Ecoli rRNA inh RFP	AF4-AF9 inh	Beta apoptosis	UCH37 inh
Cc1ccc(NC(=O)CN(C)Cc2cccs2)cc1Cl	i	-0.2	0.634	-0.3	-27.5	-45.0	-1.4	1.3	-4.5	2.3
C=CCn1c(SCC(=O)N2CCN(c3ccc(F)cc3)CC2)nnc1-c1cccs1	i	-0.6	0.722	4.9	-1.0	-11.1	-2.5	-21.0	7.0	2.1
N=c1c(S(=O)(=O)c2ccc(Cl)cc2)cc2c(=O)n3ccccc3nc2n1C1CCCC1	i	-0.1	0.744	55.1*	15.5	1.7	1.5	-1.6	-10.2	-4.4
Cc1cccc(Oc2ccccc2NC(=O)CSCC(=O)Nc2cc(C)on2)c1	i	x	0.671	x	-20.1	-27.0	-1.4	0.6	x	6.9
Cc1cccc(C)c1N(CC(=O)NN=C1CCCCCC1)S(C)(=O)=O	x	0.7	0.702	-12.6	x	x	x	x	-4.0	-0.2
Cn1nc2c3cc(F)ccc3n(Cc3ccc(F)cc3)cc-2c1=O	i	0.3	0.606	4.7	-2.7	1.9	-2.6	3.5	3.3	5.3
COc1cccc(/C(=N/O)C2CC2c2ccc(Cl)cc2)c1 (centres undefined)	i	0.7	x	16.0	-55.5	-78.2	-21.5	1.2	-6.9	x
Cn1c(=O)c2c(nc(CO)n2C)n(C)c1=O	i	0.7	0.677	0.8	11.6	6.1	-0.2	-0.9	-0.4	0.5
O=C(c1cccc(OCc2ccccc2)c1)N1CCOCC1	i	-0.1	0.703	-1.5	-0.3	-3.8	5.4	u	-1.0	2.6
CCC1CCCCN1C(=O)CCn1c(=O)oc2ccccc21 (centres undefined)	i	-0.4	0.774	3.1	4.6	2.6	-2.4	7.6	-10.9	4.9
CCOC(=O)n1ccc(C(=O)Nc2ccccc2F)n1	x	-1.6	0.65	-23.5	x	x	x	x	-10.4	-1.0
COc1ccnc(Oc2cccc(C(F)(F)F)c2)c1C(=O)N/C=N/OCc1ccccc1F	i	1.0	0.699	22.4	0.3	-10.0	0.4	-1.8	11.0	-1.2
Cn1c(=O)[nH]c(=O)c2c1nc(N1CCCCCC1)n2CC(N)=O	x	0.5	0.705	-4.4	6.5	4.4	-2.3	x	1.1	-1.8
CCSc1nc2sccc2c(=O)n1-c1ccccc1	i	-0.2	0.71	0.0	-6.3	-13.9	0.7	1.8	x	0.2
c1ccc(CN=C2NN=C(c3ccccc3)CS2)cc1	i	-0.1	0.69	-1.7	-2.9	7.5	2.6	2.3	-5.0	5.8
CCN(CC)CCCN(Cc1cc2cc3c(cc2[nH]c1=O)OCCO3)C(=O)Nc1ccc(F)cc1	x	-0.5	0.736	5.9	x	x	x	x	-7.7	-16.5

Full records, looked up by structure. Screens in order: FGF22 binding	A1 inh	E coli growth	T cruzi inh	Ecoli rRNA inh	Ecoli rRNA inh OD600	Ecoli rRNA inh RFP	AF4-AF9 inh	Beta apoptosis	UCH37 inh
CCN(CC)CCCN(Cc1cc2cc3c(cc2[nH]c1=O)OCCO3)C(=O)Nc1ccc(F)cc1 as listed: x	-0.5	0.736	5.9	x	x	x	x	-7.7	-16.5
O=C(c1cccc(OCc2ccccc2)c1)N1CCOCC1 as listed: i	-0.1	0.703	-1.5	-0.3	-3.8	5.4	u	-1.0	2.6
CCC1CCCCN1C(=O)CCn1c(=O)oc2ccccc21 (centres undefined) as listed: i	-0.4	0.774	3.1	4.6	2.6	-2.4	7.6	-10.9	4.9
Cc1cccc(C)c1N(CC(=O)NN=C1CCCCCC1)S(C)(=O)=O as listed: x	0.7	0.702	-12.6	x	x	x	x	-4.0	-0.2

(list continues)
mol	FGF22 binding	A1 inh	E coli growth	T cruzi inh	Ecoli rRNA inh	Ecoli rRNA inh OD600	Ecoli rRNA inh RFP	AF4-AF9 inh	Beta apoptosis	UCH37 inh
COc1cccc(NC(=O)CN(C)C(=O)C2=COCCO2)c1	i	x	0.576	x	4.6	17.8	-3.1	-4.4	x	2.5
S=C(NCCC(c1ccccc1)c1ccccc1)Nc1ccccc1Cl	x	0.1	0.775	-12.2	x	x	x	x	-5.8	4.9
Cc1ccc(S(=O)(=O)N(C)CC(=O)O/N=C(\N)c2cccnc2)cc1	i	1.0	0.704	1.7	8.5	2.0	4.8	-1.1	-1.3	3.9
CC1CCN(C(=O)CCCC(=O)O)CC1	x	-1.4	0.729	7.1	x	x	x	x	-3.0	1.2
COc1cc(CNC(=O)CCn2nc(C)c3c(C)n(-c4ccccc4)nc3c2=O)cc(OC)c1OC	i	1.4	0.689	0.4	5.1	9.3	-2.1	-0.4	1.5	2.5
O=C1C2C3c4ccccc4C(c4ccccc43)C2C(=O)N1c1cccnc1 (centres undefined)	i	0.2	0.717	-9.3	1.0	-3.2	-1.9	-1.0	-4.9	4.1
Cn1nc(-c2ccccc2)c(C#N)c1Sc1cccc(Cl)c1	i	1.6	0.67	13.7	0.1	5.6	5.0	1.6	7.7	-0.1
CS(=O)(=O)c1ccc(C(=O)OCC(=O)NCc2cccs2)cc1[N+](=O)[O-]	i	1.1	0.717	x	-11.2	8.2	-3.8	-0.1	13.1	6.0
COc1ccc(C)cc1N(CC(=O)N/N=C/c1ccc2c(c1)OCO2)S(C)(=O)=O	x	-0.1	x	-3.6	-3.1	1.6	3.4	2.6	-0.6	x
COc1cccc(CN2c3ccc(Br)cc3C(=O)CS2(=O)=O)c1	i	u	0.694	x	-37.4*	-23.2*	-7.9*	-2.3	0.1	0.5
COCCCN1C(=O)CC(C(=O)OC)=C1C	i	-1.1	0.674	-8.3	6.2	2.2	0.1	-0.2	2.8	3.6
Cc1ccc(C)c(S(=O)(=O)N2CCCC2CNC(=O)C(=O)NCc2ccco2)c1 (centres undefined)	i	1.4	0.634	-11.6	4.2	-8.8	0.4	1.0	-2.0	0.5
O=C(CNC(=O)c1cccc([N+](=O)[O-])c1)OCCCC(=O)c1ccc(F)cc1	i	0.1	0.67	x	2.0	0.0	-5.9	2.0	-1.0	0.2
COc1cc(/C=C(\C(=O)O)c2ccc(S(=O)(=O)N3CCCC3)s2)cc(OC)c1	i	x	0.727	x	-6.6	-6.5	0.3	2.1	x	5.2
O=C(COC(=O)/C=C/c1ccco1)Nc1ccc(F)cc1Cl	i	-0.1	0.684	-9.1	3.6	10.4	1.2	-0.1	-0.7	0.6
C=C(C)c1cccc(C(C)(C)NC(=O)N2CCN(c3ccc(OC)cc3)CC2)c1	i	0.7	0.726	12.1	x	x	x	-0.4	2.8	1.8
O=c1[nH]c(=S)[nH]c2nc(-c3cccs3)cc(C(F)(F)F)c12	i	0.9	0.691	1.1	7.3	1.7	-1.5	-4.7	-2.3	-7.5
Cc1cccc(OCCn2cnc(Cl)c2Cl)c1	i	-0.7	0.669	3.1	-17.6	-12.4	1.4	9.0	-5.4	4.0
O=[N+]([O-])c1ccccc1CCc1cnc(Cl)s1	i	0.8	0.672	3.2	2.0	7.7	-2.1	-1.9	-7.4	4.1
COc1ccc2sc(N(CCCN(C)C)C(=O)c3ccc(S(=O)(=O)N4CCCc5ccccc54)cc3)nc2c1	x	0.0	0.694	61.8*	-54.6	-75.9	-16.3	31.5*	x	7.1
Cc1ccc(S(=O)(=O)Nc2ccc(Cl)cn2)cc1	i	-0.9	0.618	12.1	3.7	3.4	-0.3	-3.4	2.7	-1.2
Nc1cccc(/C=C/c2ccncc2)c1	i	-1.4	0.669	36.0	2.2	-2.0	-0.8	2.3	-5.6	2.8
NC(=O)CSc1nnc(COc2ccccc2)n1N	i	0.7	0.652	-15.8	6.1	7.2	7.7	-1.4	-6.7	-1.0
CCC1(C)OC(=O)NN(c2ccc(C)cc2)C1(C)O (centres undefined)	x	0.2	0.673	-11.9	x	x	x	x	2.7	3.2
CCCc1nnc(NC(=O)Cn2c(=O)oc3cc(Br)ccc32)s1	x	-0.3	0.643	x	x	x	x	x	-9.5	-5.0
CCc1cccc(NC(=O)CC2Oc3ccccc3NC2=O)c1 (centres undefined)	i	0.6	0.683	-18.8	1.9	4.8	-0.6	-0.9	0.7	-0.1
O=C(COc1ccc(S(=O)(=O)N2CCCC2)cc1)N1CCCC1	i	-0.6	0.668	-1.5	3.4	6.7	-1.2	-3.5	-7.5	3.4
CCN(CC)c1nc2nonc2nc1N(CC)CC	x	0.2	0.673	-6.6	x	x	x	x	5.5	11.9
CCOC(=O)C1CCN(C(=O)C2CCN(S(=O)(=O)N3CCCC3)CC2)CC1	x	-0.4	0.663	12.0	x	x	x	x	0.7	1.2
O=S(=O)(c1cccs1)N1CN(Cc2cccs2)c2nc3ccccc3nc21	x	0.1	0.718	22.5	x	x	x	x	-1.7	1.4
CCOC(=O)C(NC(=O)Nc1ccc(Cl)cn1)(Oc1ccccc1)C(F)(F)F (centres undefined)	i	0.3	0.726	-3.4	14.6	13.5	17.6	6.7	-12.5	4.2
CC(=O)NC1(C(Cl)(Cl)Cl)Oc2ccccc2O1	x	0.4	0.728	33.6	x	x	x	x	-11.3	5.5
CC(=O)CSc1ncnc2c1oc1ccccc12	x	-0.4	0.661	4.0	x	x	x	x	-1.1	1.5
CCN(CC)C(=O)c1sc(NC(=S)N2CCN(C(=O)C3CCCO3)CC2)c(C(=O)OC)c1C (centres undefined)	i	0.8	0.738	-5.9	-12.9	-3.8	-5.2	0.8	3.7	7.7
COc1ccc(N(CCC(=O)Nc2ccccc2F)S(=O)(=O)c2ccc(C)cc2C)cc1	i	0.2	0.676	13.7	-4.1	-28.5	8.6	-14.8	2.9	4.2
CN(c1cccc(NC(=O)c2ccc(Cl)c(S(=O)(=O)N3CCOCC3)c2)c1)S(C)(=O)=O	i	-0.4	0.706	10.4	6.0	8.2	1.6	-0.2	-1.9	-2.2

Gathered by group: the entries above containing an NH in an aromatic ring (three)
mol	FGF22 binding	A1 inh	E coli growth	T cruzi inh	Ecoli rRNA inh	Ecoli rRNA inh OD600	Ecoli rRNA inh RFP	AF4-AF9 inh	Beta apoptosis	UCH37 inh
Cn1c(=O)[nH]c(=O)c2c1nc(N1CCCCCC1)n2CC(N)=O	x	0.5	0.705	-4.4	6.5	4.4	-2.3	x	1.1	-1.8
CCN(CC)CCCN(Cc1cc2cc3c(cc2[nH]c1=O)OCCO3)C(=O)Nc1ccc(F)cc1	x	-0.5	0.736	5.9	x	x	x	x	-7.7	-16.5
O=c1[nH]c(=S)[nH]c2nc(-c3cccs3)cc(C(F)(F)F)c12	i	0.9	0.691	1.1	7.3	1.7	-1.5	-4.7	-2.3	-7.5

Screens from PubChem BioAssay.

Some of the compounds tested (hit frequency here may not be typical).
